Source: PubChem (Center for Chemical Genomics, University of Michigan)
TAR Tat displ = HIV-1 TAR-Tat binding disruption | HIV-1 TAR RNA, Tat peptide displacement FRET; active compounds read high | z-score (concentration not given with the values) | actives 0.6% (n = 100,000) | AID 1259389;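 also: score is relative to mean and SD of negative controls; some compounds called inactive have numbers as strong as hits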
CDC25B-CDK2 inh = human CDC25B-CDK2/CyclinA binding inhibition; P30305+P24941; z-score (test concentration not listed); AID 1259370; actives 0.72% (n = 94,000); HTRF CDC25B-CDK2/CyclinA binding, anti-His/anti-Flag; active compounds read high;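 also: score is relative to mean and SD of negative controls; strong numbers were not always called active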
The depositor's hits bear a star; . = no result given.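 The calls were made as follows: active = z-score from 3 up in half or more of its runs; inactive = the rest.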

molecule,CDC25B-CDK2 inh,TAR Tat displ
CCN(CC)S(=O)(=O)c1ccc2c(c1)CC(C(=O)NCc1ccccn1)N2C(C)=O (configuration not stated),.,0.25
CC1CN(C(=O)Cn2cc(SCC(=O)Nc3ccc4c(c3)OCCO4)c3ccccc32)CC(C)O1 (configuration not stated),.,-0.89
COc1ccc(C2=NS(=O)(=O)N(C)C(C(=O)N(C)C3CCCCC3)=C2)cc1OC,0.71,2.1
Cc1ccc(N2C(=O)CC3(CC(C(=O)OCc4ccccc4)=NN3)C2=O)cc1C (configuration not stated),-0.12,-0.8
CCc1ccc2c(c1)C(O)(CC(=O)c1ccc(-c3ccc(Cl)cc3)o1)C(=O)N2 (configuration not stated),.,0.39
Cc1ccc2[nH]c(=O)c(CN(C)S(C)(=O)=O)cc2c1,-1.4,0.02
COC(=O)Cn1c(SCCOc2cccc(OC)c2)nc2ccccc21,-0.75,0.17
CN1CCN(C(=O)C2CCN(c3ccc4cc(S(=O)(=O)N5CCCCC5)ccc4n3)CC2)CC1,.,0.52
COc1cc(Cl)c(NS(=O)(=O)c2ccc3c(c2)NC(=O)C(C)CS3)c(OC)c1 (configuration not stated),.,1.6
Cc1cc2c3c([nH]c2cc1S(=O)(=O)NC1CC1)CCCC3=O,.,2
CNC(=O)n1cc(-c2ccccc2)c(C)n1,-1,.
Cc1ccc(C)n1-c1ccc(/C=C(/C#N)S(=O)(=O)C(C)(C)C)cc1,-0.14,.
Oc1c(Cl)cc(Cl)cc1C1Nc2cc(Cl)c(C(F)(F)F)cc2N1 (configuration not stated),-1.6,.
Cc1ccc(C)c(CN2C(=O)C(O)(c3c[nH]c4ccccc34)c3ccccc32)c1 (configuration not stated),0.9,-0.37
OCC(O)C(O)C(O)C(O)C(O)CO (configuration not stated),.,-0.11
Cc1ccc(C)c(N2CCN(c3ncnc4sc(C(=O)O)c(C)c34)CC2)c1,.,4.4*
O=C(CSc1ccc2nnc(-c3ccc(Cl)cc3)n2n1)Nc1ccc(F)cc1F,-4.2,.
Cc1cccc(N2CSC3=C(C#N)C(c4ccc(C)o4)CC(=O)N3C2)c1 (configuration not stated),-0.48,-1
Cc1ccc(-c2nnc3ccc(SCC(=O)N4CCc5ccccc54)nn23)cc1,-2.2,.
Cn1nc(C(=O)N2CCC(c3ccccc3)C2)c2c1-c1ccsc1CC2 (configuration not stated),.,1.3
CCC(O)c1nc2ccccc2n1Cc1cc(C)ccc1C (configuration not stated),0,0.36
CCC(C)NC(=O)CCC(=O)N1CC(C)Sc2ccccc21 (configuration not stated),.,1.1
CCS(=O)(=O)N1CCCC(C(=O)NCCCN2CCOCC2)C1 (configuration not stated),.,1.5
O=C(COc1ccc(Br)cc1)Oc1ccc(-n2cnnn2)cc1,-0.98,-0.7

Some of the entries so far, with two lines to a compound.
Results follow in this order: CDC25B-CDK2 inh | TAR Tat displ
- Cc1cccc(N2CSC3=C(C#N)C(c4ccc(C)o4)CC(=O)N3C2)c1 (configuration not stated)
 : -0.48 | -1
- Cc1ccc(-c2nnc3ccc(SCC(=O)N4CCc5ccccc54)nn23)cc1
 : -2.2 | .

Carrying on:
molecule,CDC25B-CDK2 inh,TAR Tat displ
CSc1nc(SCC(=O)Nc2ccccc2)c2c3c(sc2n1)COC(C)(C)C3,-2.5,0.03
COc1cc(OC)cc(OCC(O)Cn2c(Cc3ccccc3)nc3ccccc32)c1 (configuration not stated),-0.64,0.6
O=C(COc1ccc(Cl)cc1)Nc1nc(-c2cccs2)ns1,1.2,1.2
COc1ccc(S(=O)(=O)N2CCc3cc4cccc(C)c4nc32)cc1Cl,-0.59,-0.12
CC1=CS(=O)(=O)c2ccc(Cl)cc21,-2.5,.
O=C(Cn1c(NCCO)nc2ccccc21)c1cccc2ccccc12,0.45,-1.6
O=C(NCCO)C(=O)Nc1ccc(Br)cc1,-0.19,0.71
CC(=O)NCCNC(=O)CCc1nc2sc3c(c2c(=O)[nH]1)CCC(C(C)(C)C)C3 (configuration not stated),.,0.21
O=C(C1CCCN1c1nnc(N2CCCC2=O)s1)N1CCOCC1 (configuration not stated),-2.3,1.7
CCCCCOC(=O)C1=C(C)NC2=C(C(=O)CCC2)C1c1cc(Br)c(O)c(OCC)c1 (configuration not stated),-0.76,1.6
O=C(NCC(c1cccnc1)N1CCc2ccccc21)c1ccc2c(c1)OCO2 (configuration not stated),-1.4,1
CCNC(=O)NC1COc2ccc(OC)cc2C1 (configuration not stated),.,1
O=C(c1cnc2sc(N3CCOCC3)nn2c1=O)N1CCN(c2ccccc2)CC1,.,1.4
CC(C)Cn1cc(NC(=O)NCCN(C)C2CCCCC2)c2ccccc2c1=O,.,-0.45
CCNc1cc(C)nc(N2CCN(C(=O)Nc3ccccc3)CC2)n1,.,-8.3
CC(C)c1ccc(NC(=S)NC2CC3C=CC2C3)cc1 (configuration not stated),-0.7,.
CCc1nn2c(=O)cc(CSc3nnc(-c4ccc(OC)c(OC)c4)o3)nc2s1,0.76,-1.2
c1ccc(-n2nnnc2SCCNCc2ccc(OCc3cccs3)cc2)cc1,0.46,-0.15
COc1ccc(S(=O)(=O)NC2CCN(C(=O)C3CC(=O)N(C4CCCC4)C3)CC2)cc1 (configuration not stated),.,0.77
O=C1O[C@@H]2C[C@H]3C[C@@H]2[C@@H]1[C@H]3C(=O)Nc1ccc(C(=O)N2CCOCC2)cc1,-0.36,1.3
CC(C)(C)c1cc(C(=O)NNC(=O)c2cccs2)n(Cc2ccc(F)cc2)n1,-2,.
Cc1cc(-c2ccc(S(=O)(=O)N3CCN(C)CC3)s2)on1,.,-0.03
Cn1c(CNc2ccccc2)nc2ccccc21,-1.3,-0.28
O=C(c1ccco1)N1CCN(c2csc3ccc(Br)cc3c2=O)CC1,.,-0.29
CC1CCC(C(=O)NC(Cc2c[nH]c3ccccc23)C(=O)NCc2ccco2)CC1 (configuration not stated),-0.79,.
CCN(CC)c1ccc(/C=C2\OC(=O)c3cc([N+](=O)[O-])ccc32)cc1,0.45,.
O=[N+]([O-])c1cc(C(F)(F)F)ccc1N1CCCCC1,-0.85,.
O=S(=O)(NCc1cccnc1)c1cccc2cccnc12,-2,1.4
O=C(c1cccnc1)N(c1ccc2oc(=O)sc2c1)S(=O)(=O)c1ccccc1,-1.9,-0.03
O=C(O)CC1(CC(=O)NCc2cccc(Cl)c2)CCCCC1,-1,.
COC(=O)CCSc1c(S(=O)(=O)c2ccc(Cl)cc2)cnc2ccc(F)cc12,-3.4,3.4
CCN1CCN(c2ncc3c(n2)CCN(Cc2ccc(F)cc2F)C3)CC1,.,1.3
Cc1nc(C(N)=NC(=O)c2ccccc2)cs1,-0.69,.
CCSCCOC(=O)C1=C(C)NC2=C(C(=O)CCC2)C1c1ccccc1OC(C)C (configuration not stated),-0.76,1.2
O=c1[nH]c2cc3c(cc2c(=O)n1CCc1nc(-c2cccnc2)no1)OCO3,.,0.75
COC(=O)c1cc(OC)c(OC)cc1N(C)S(C)(=O)=O,2,.
Clc1ccc(CNc2nc3ccccc3c3nc(-c4ccncc4)nn23)cc1,0.93,0.84
CC1Cc2ccccc2N1S(=O)(=O)c1ccc2c(c1)c(=O)n(CC(=O)N1CCCC1)c(=O)n2C (configuration not stated),.,0.77
CC12CS(=O)(=O)CC1SC(=S)N2c1cccc(O)c1 (configuration not stated),-2.1,0.65
CC(C)(C)NC(=O)C(=O)NCC1CCCO1 (configuration not stated),-0.51,0.67
O=C1c2ccccc2C(=O)N1/N=C/c1ccc([N+](=O)[O-])s1,-2,.
O=C1CSC(c2ccc(Cl)cc2)N1 (configuration not stated),-1,1.7
O=C(c1cnn(-c2cccc(F)c2)c1-n1cccc1)N1CCN(c2ccccc2)CC1,.,1.7
CC(C)Cc1nc(SCC(=O)Nc2ccc3c(c2)OCCO3)c2c(=O)n(C)c(=O)n(C)c2n1,.,0.48
N/C(=N/c1ccccn1)c1ccc(Cl)cc1,-1.2,.
COC(=O)c1c(C)oc2ccc(O)c(CN3CCCC(C)C3)c12 (configuration not stated),-1.1,0.85
CCOC(=O)c1c(C)[nH]c(C)c1S(=O)(=O)N1CCC(C(=O)NCc2ccc(C)o2)CC1,.,1.1
CCN(CC)CCNc1ncnc2c1oc1nc3c(cc12)COC(C)(C)C3,.,1.8
CCOC(=O)c1c(C)[nH]c(C(=O)CN2CCCCC2)c1C,-1.8,0.33
O=C(Nc1nnc2n1CCCS2)C(c1ccccc1)c1ccccc1,.,0.08
COc1ccc2[nH]c3c(c2c1)CCNC3c1ccc(C)cc1 (configuration not stated),-1.9,1.4
COc1ccc(Nc2nc3c(S(=O)(=O)c4ccccc4)nnn3c3ccccc23)cc1,-0.59,0.95
Cn1nnnc1SCCNCc1ccc(OCc2ccccc2)cc1,-1.2,-0.77
Nc1nc(-c2ccc3c(c2)OCCO3)cs1,-1.2,.
S=C1NCN(Cc2cccs2)CN1,-1.8,.
Cn1c(N2CCCC(C(=O)O)C2)cc(=O)n(C)c1=O (configuration not stated),-1,1.4

Remaining list, next part
molecule,CDC25B-CDK2 inh,TAR Tat displ
O=C(c1ccccc1)c1cccc(NC(=O)c2c(F)cccc2Cl)c1,0.36,.
CCCCN1C(C(=O)c2ccccc2)=C(OC(=O)C(C)C)c2ccccc2S1(=O)=O,-0.83,0.11
O=C(Nc1cccc2nsnc12)C1CC1,.,0.18
O=C(CSc1nncn2c1cc1sccc12)Nc1ccc(F)cc1F,.,2.1
CCC(C)OC(=O)C1=C(C)NC2=C(C(=O)CCC2)C1c1cccs1 (configuration not stated),0.12,2.1
O=C(Nc1ccc([N+](=O)[O-])cc1)c1ccc([N+](=O)[O-])o1,-0.53,.
COc1ccccc1NS(=O)(=O)c1ccc(-c2cc(C)[nH]n2)s1,.,-0.72
COC(=O)CC1Sc2ccc(S(=O)(=O)N(C)C)cc2NC1=O (configuration not stated),.,1.4
Cc1ccc(-c2cnc(C3CC3)o2)cc1S(=O)(=O)Nc1ccc2c(c1)OCO2,.,1.7
CN(CCO)c1cc(NCc2ccccc2)c2c3c(onc13)-c1ccccc1C2=O,2.7,-3.2
CCOC(=O)c1c(NC(=O)Cn2cnc([N+](=O)[O-])n2)sc2c1CCC(C)C2 (configuration not stated),.,1.8
CSc1nnc(CCCc2nnc(SC)o2)o1,0.89,.
CCNc1nc(-c2ccccc2)no1,.,0.4
CCOc1ccc(-n2c(C)c(C)c3c2ncn2nc(-c4ccccc4O)nc32)cc1,-2.1,0.8
O=C(C1CC1)N1CCc2cc(Br)cc(S(=O)(=O)N3CCc4ccccc4C3)c21,0.54,.
O=C(N/N=C(/c1ccccc1)C(F)(F)F)c1ccncc1,-4.1,.
CCc1nc2c(=O)[nH]c3ccccc3c2o1,0.84,1.5
O=C(c1cnn(-c2ccccc2)c1-n1cccc1)N1CCC(C(=O)N2CCc3ccccc3C2)CC1,-0.76,0.39
O=C(NCc1nnc(C(=O)Nc2ccc3c(c2)OCO3)s1)c1cc(-c2cccs2)on1,.,-2.5
CN1C(=O)CCc2cc(NS(=O)(=O)c3ccccc3)ccc21,.,1
Cc1ccc(-c2cc(O)cc3sc(=O)oc23)cc1Cl,-0.91,0.18
O=C(NC1CCCCC1)C1CCC(CNc2c(N3CCOCC3)c(=O)c2=O)CC1 (configuration not stated),-1.8,.
Cn1c(=O)c2c(nc(CN3CCN(c4ccccc4)CC3)n2CCN2CCOCC2)n(C)c1=O,-1.4,-0.14
Cn1c(=O)c(=O)n(C)c2cc(S(=O)(=O)N3CCCc4ccccc43)ccc21,-0.48,0.45
COC(=O)c1c(NC(=O)c2sc3ccccc3c2Cl)sc(C)c1C,-1.4,1.5
COc1ccccc1-c1nc(=S)c2c([nH]1)Oc1ccc(F)cc1C2,-1.7,0.17
O=C(NC1CCCCC1)c1cc2c(s1)-c1ccccc1OC2,-0.11,0.5
Cc1cc(C)nc(-n2[nH]c3nccc(-c4ccc5c(c4)OCO5)c3c2=O)n1,-3.6,-1.2
COc1cccc(NC(=O)CSc2nc3c(sc(=S)n3-c3ccccc3)c(=O)[nH]2)c1,.,1.8
CCOC(=O)N1CCC(Nc2c(NC(C)(C)C)c(=O)c2=O)CC1,-1.1,1
Cc1coc(=O)n1-c1ccc(Cl)cc1Cl,-0.22,.
CN(C)CCOC(c1ccccc1)c1ccccc1 (tested in a mixture with another compound),.,3.5
CCCCNC(=O)c1cnc2c(C)cccn2c1=O,.,0.69
COc1ccc(NS(=O)(=O)c2ccc3c(c2)NC(=O)CS3)cc1Cl,.,0.81
N#CC1=C(N)OC2=C(CCC/C2=C\c2ccccc2)C1c1ccccc1 (configuration not stated),-1.3,.

Another view of some results above.
compound: Cc1coc(=O)n1-c1ccc(Cl)cc1Cl
  CDC25B-CDK2 inh = -0.22 | TAR Tat displ = .

compound: CN(C)CCOC(c1ccccc1)c1ccccc1 (tested in a mixture with another compound)
  CDC25B-CDK2 inh = . | TAR Tat displ = 3.5

compound: CCCCNC(=O)c1cnc2c(C)cccn2c1=O
  CDC25B-CDK2 inh = . | TAR Tat displ = 0.69

compound: COc1ccc(NS(=O)(=O)c2ccc3c(c2)NC(=O)CS3)cc1Cl
  CDC25B-CDK2 inh = . | TAR Tat displ = 0.81
